YopH inh: YopH (Yersinia) phosphatase inhibition; fluorescence Ex485/Em525; inhibition, %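 (about 10 µM by stock and volumes)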; hit rate 0.16% among 140,000; AID 898;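 active = inhibition of 50% or more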;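 also: controls were vehicle for no effect and minimum signal wells for full effect; inactives centre near -20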
RecA splice inh: inhibitors of M. tuberculosis RecA intein splicing; P9WHJ3; cell-free RecA intein splicing, fluorescence; inhibition, %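 (about 9 µM by stock and volumes)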; hit rate 0.75% among 290,000; in the data active = inhibition above about 30%; inconclusive = no clear call, values can overlap the other calls;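 also: 0% = vehicle wells and 100% = reference inhibitor control wells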
Target sequence (P9WHJ3 whole entry, looked up, canonical isoform): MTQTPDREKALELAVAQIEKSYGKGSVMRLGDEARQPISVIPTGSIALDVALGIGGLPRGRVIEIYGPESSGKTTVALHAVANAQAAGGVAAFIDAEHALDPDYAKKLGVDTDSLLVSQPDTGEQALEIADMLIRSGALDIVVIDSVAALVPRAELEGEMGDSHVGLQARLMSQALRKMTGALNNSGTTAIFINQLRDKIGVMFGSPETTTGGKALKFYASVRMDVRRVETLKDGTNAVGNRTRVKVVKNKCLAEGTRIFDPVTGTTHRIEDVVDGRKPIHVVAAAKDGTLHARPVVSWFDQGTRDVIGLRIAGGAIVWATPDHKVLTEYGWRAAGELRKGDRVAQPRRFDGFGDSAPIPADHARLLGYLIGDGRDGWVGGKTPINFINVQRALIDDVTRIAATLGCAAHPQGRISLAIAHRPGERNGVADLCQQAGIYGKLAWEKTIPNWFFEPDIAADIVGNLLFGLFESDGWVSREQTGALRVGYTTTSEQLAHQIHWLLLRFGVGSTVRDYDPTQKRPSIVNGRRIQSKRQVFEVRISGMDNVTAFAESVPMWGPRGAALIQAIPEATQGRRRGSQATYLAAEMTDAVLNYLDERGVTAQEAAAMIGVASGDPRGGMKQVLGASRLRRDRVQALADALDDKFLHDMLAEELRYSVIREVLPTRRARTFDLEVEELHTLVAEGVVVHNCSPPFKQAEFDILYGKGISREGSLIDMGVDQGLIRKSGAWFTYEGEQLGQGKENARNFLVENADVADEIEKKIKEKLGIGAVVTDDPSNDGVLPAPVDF
Mtb H37Rv: M. tuberculosis H37Rv growth inhibitors, H37Rv strain (AID 1626) | M. tuberculosis H37Rv growth inhibition; higher % means a stronger effect | inhibition, % at 10 µM; hits with a dose series show IC50 in µM | hit rate 0.95% among 220,000;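 active = confirmed in a dose series; inconclusive = inhibition above 80% but not taken into the dose series; inactive = below 80% or under 30% at every dose of the series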;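 also: bacteria incubated seven days before Alamar blue readout; 0% = bacteria only wells and 100% = bacteria with antibiotic wells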
Arbovirus inh: antivirals against arbovirus infection; arbovirus infection cell-based antiviral screen; inhibition, % at 10 µM; hit rate 0.37% among 200,000; AID 1251;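 active = inhibition from about 30%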;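 also: bluetongue infection of BSR cells; cell survival read as ATP light after 72 h; 0% = infected wells without compound and 100% = uninfected wells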
Mtb bLac sens: beta-lactam sensitization of Mtb H37Rv; M. tuberculosis H37Rv growth with meropenem, percent inhibition; hits of this screen are not shown here; inhibition, % at 25 µM; hit rate 0.27% among 330,000; AID 434955;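 active = about 74% or more and at least 40 points above the plate without the antibiotic, then above 30% in a dose series; inconclusive = first-round hits that could not be retested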;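 also: growth measured after seven days incubation then overnight dye step; 0% = bacteria only wells and 100% = bacteria with antibiotic; twin plates without the antibiotic show which effects depend on it; some results filed as inactive read as strong as hits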
Arbovirus inh repeat: recorded beside Arbovirus inh, whose call it bears; inhibition, %; measured here: 10K subset replicate screen; many hits read low in the repeat;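 first of two repeat runs on a subset; 0% = infected and 100% = uninfected wells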
* = called active by the depositor; ? = inconclusive; . = not tested or not shown. An excerpt. The share of hits here may be higher or lower than overall.

SMILES	YopH inh	RecA splice inh	Mtb H37Rv	Arbovirus inh	Mtb bLac sens	others
CCOC(=O)C1CCCN(S(=O)(=O)c2cc(OCC(=O)NC3CCCCC3)c(C)cc2Cl)C1 (stereo not given)	-6	.	0%	-4	-10
O=C(NC(=S)NCCN1CCOCC1)c1cccc(Cl)c1	6	0.7	-3%	2	4
CCOc1ccccc1C1CC(=O)Nc2c1c(=O)n(C)c(=O)n2C (stereo not given)	-48	1.1	-2%	7	4
CCN(CC)CCn1c2ccccc2c2nc3ccccc3nc21	.	-2.7	.	.	2
O=C(C1CCCN(S(=O)(=O)Cc2ccccc2)C1)N1CCC(Cc2ccccc2)CC1 (stereo not given)	0	6.2	1%	-18	25
O=C(CN(C1CCCCC1)S(=O)(=O)c1ccc(F)cc1)NCc1ccncc1	-16	-1.4	0%	0	-18
COc1ccc(CN2CCN(S(=O)(=O)c3ccc(NC(C)=O)cc3)CC2)cc1OC	-54	-1.2	-4%	11	4
Cc1csc(=Nc2c(C)n(C)n(-c3ccccc3)c2=O)n1Cc1ccccc1	-38	-3.7	-11%	-2	9
c1ccc2c(c1)ccc1ncccc12	.	.	-7%	-3	4
COC(=O)[C@@H](NCc1cccc(CN[C@H](C(=O)OC)c2ccccc2)c1)c1ccccc1	.	0.9	.	.	-1
Cc1ccccc1-n1nc2c(c1NC(=O)c1ccco1)CS(=O)(=O)C2	.	-0.9	.	.	-2
COc1ccc(C(=O)N2CCN(S(=O)(=O)c3cc(Cl)ccc3OC)CC2)cc1	-7	-1.4	0%	6	-2
CCCCNC(=S)Nc1ccccc1Cc1ccccc1	.	2.4	8%	1	-12
O=C(OCC(=O)N1N=C(c2ccc(Cl)cc2)CC1c1ccco1)c1ccco1 (stereo not given)	.	2.8	-4%	-4	-1
CCC(C)Sc1nc2c(c(=O)[nH]c(=O)n2C)n1CCc1ccccc1 (stereo not given)	-18	0.0	4%	7	-2
O=C(NNS(=O)(=O)c1ccccc1F)c1sccc1-n1cccc1	.	2.4	-2%	1	1
COc1ccc(S(=O)(=O)N2CCOC23CCN(S(=O)(=O)c2cc(C)ccc2OC)CC3)cc1	.	-0.1	.	.	-3
Fc1ccccc1OCCn1c(=S)[nH]c2ccccc21	.	2.4	.	.	0
O=S(=O)(c1ccc(S(=O)(=O)N2CCN(C/C=C/c3ccccc3)CC2)cc1)N1CCCC1	-35	0.8	-10%	-10	-7
COCC(=O)N1CCC(Oc2cccc(C(=O)NCc3ccccn3)c2)CC1	.	-0.4	.	.	6

Quoted at random: 2 records from the list.
SMILES	YopH inh	RecA splice inh	Mtb H37Rv	Arbovirus inh	Mtb bLac sens	others
O=C(OCC(=O)N1N=C(c2ccc(Cl)cc2)CC1c1ccco1)c1ccco1 (stereo not given)	.	2.8	-4%	-4	-1
Cc1csc(=Nc2c(C)n(C)n(-c3ccccc3)c2=O)n1Cc1ccccc1	-38	-3.7	-11%	-2	9

(continued)
SMILES	YopH inh	RecA splice inh	Mtb H37Rv	Arbovirus inh	Mtb bLac sens	others
COc1ccccc1NC(=S)NCCc1ccc(F)cc1	.	0.3	6%	5	0
CC(C)=CC(=O)N1CCC(N2CCC(C(=O)NCC3CCCO3)CC2)CC1 (stereo not given)	.	-6.3	.	.	-11
O=C(NNC(=O)c1ccc(S(=O)(=O)N2CCCCC2)cc1)c1ccccc1	.	0.9	.	.	-7
O=C(NCc1ccccc1)c1cnc2n(c1=O)CCS2	-44	-0.5	6%	1	-11
Cc1oc(-c2ccccc2Cl)nc1CS(=O)CC(=O)NCc1cccs1 (stereo not given)	0	0.9	-9%	-4	-7
CC1CCCCC1NS(=O)(=O)c1ccc(S(=O)(=O)NCc2ccncc2)cc1 (stereo not given)	-38	1.5	2%	2	?
CCC1(CC)Cc2ccccc2C(N)=C1C#N	-3	0.5	4%	-1	.
CCn1nc(C)c(NC(=O)c2ccc(Cl)cc2)c1C	.	-4.9	-1%	8	-2
CCCCn1c(SCC(=O)N2CCCC2)nc2cc(S(N)(=O)=O)ccc21	.	-0.4	6%	20	-11
O=C(O)c1ccc2c(=O)n3c(nc2c1)/C(=C/c1ccccc1C(F)(F)F)CCCC3	-18	0.8	-7%	0	10
O=C(CSc1nnc(-c2c[nH]c3ccccc23)o1)c1ccc(-c2ccccc2)cc1	-13	1.3	4%	-5	6
COC(=O)CN1C(=S)N(c2ccc(Cl)cc2)C(=O)C1CC(=O)Nc1ccc(F)cc1 (stereo not given)	-5	3.8	-4%	-4	-2
CCN(CC)S(=O)(=O)c1cc(-c2nn(C)c(=O)c3ccccc23)ccc1C	-40	-0.8	3%	-11	47
CCOC(=O)C1CCN(c2nc3c(C)cccn3c(=O)c2/C=C(\C#N)S(=O)(=O)c2ccccc2)CC1	.	-2.6	-1%	.	-6
CC(C)[C@@H]1NC(=O)c2cc([N+](=O)[O-])cc(I)c2NCCC[C@@H](C(N)=O)NC(=O)[C@H](CO)NC1=O	-22	.	-10%	7	-4
COc1ccccc1N(Cc1ccccc1)S(=O)(=O)c1cccc(C(=O)Nc2ccc(C)cn2)c1	.	6.3	.	.	-9
COCCN(CC(=O)Nc1ccccc1C)S(=O)(=O)c1ccc(S(=O)(=O)N2CCCC2)cc1	-120	-0.6	.	-8	-3
COc1ccc(-c2nnc3sc(C(C)N4C(=O)c5ccccc5C4=O)nn23)cc1 (stereo not given)	-14	1.4	-16%	16	-2	Arbovirus inh repeat=0
O=C(O)CSCC(=O)N1CCCN(c2ccc(C(F)(F)F)cn2)CC1	.	-1.1	.	.	1
Nc1nc2ncc(CNc3ccc(C(=O)N[C@@H](CCC(=O)O)C(=O)O)cc3)nc2c(=O)[nH]1	.	-3.5	.	.	0
C=CCNC(=O)/C(=C\c1ccc2c(c1)OCO2)NC(=O)c1ccc(Br)cc1	3	1.4	.	-1	8
O=C(NCCN1CCC(Cc2ccccc2)CC1)C1CCCN(S(=O)(=O)c2cnc[nH]2)C1 (stereo not given)	-32	1.6	.	-3	3
CC(C)CCOc1ncnc2c1sc1nc3c(cc12)CSC(C)(C)C3	-33	.	2%	-21	.
CC1CCN(C(=O)Nc2ccc3nsnc3c2)CC1	1	-5.0	4%	-2	10
CCc1ccc(/C=C2/SC(=S)N(CCC(=O)Nc3ccc(C(=O)O)cc3)C2=O)cc1	.	-0.1	.	.	-3
COc1ccccc1NC(=O)N(Cc1ccco1)Cc1cc2c(C)ccc(C)c2[nH]c1=O	-22	0.3	-9%	4	.
CCOC(=O)c1cc2c(ccc3nc(C)c(C)c32)[nH]c1C	.	-34	.	.	4
COCCN(CC(=O)NCc1ccc(F)cc1)C(=O)CCC(=O)Nc1nccs1	-10	1.2	2%	-1	-14
Cc1ccc(C)c(NC(=O)CSc2nc3ccccc3nc2N2CCOCC2)c1	.	-0.4	.	.	4
Cc1ccc(C(=O)Nc2ccc(S(=O)(=O)N3CCN(C)CC3)cc2)cc1	-26	2.9	0%	-1	-9

Entries above with an NH in an aromatic ring, in the order listed:
SMILES	YopH inh	RecA splice inh	Mtb H37Rv	Arbovirus inh	Mtb bLac sens	others
CCC(C)Sc1nc2c(c(=O)[nH]c(=O)n2C)n1CCc1ccccc1 (stereo not given)	-18	0.0	4%	7	-2
Fc1ccccc1OCCn1c(=S)[nH]c2ccccc21	.	2.4	.	.	0
O=C(CSc1nnc(-c2c[nH]c3ccccc23)o1)c1ccc(-c2ccccc2)cc1	-13	1.3	4%	-5	6
Nc1nc2ncc(CNc3ccc(C(=O)N[C@@H](CCC(=O)O)C(=O)O)cc3)nc2c(=O)[nH]1	.	-3.5	.	.	0
O=C(NCCN1CCC(Cc2ccccc2)CC1)C1CCCN(S(=O)(=O)c2cnc[nH]2)C1 (stereo not given)	-32	1.6	.	-3	3
COc1ccccc1NC(=O)N(Cc1ccco1)Cc1cc2c(C)ccc(C)c2[nH]c1=O	-22	0.3	-9%	4	.
CCOC(=O)c1cc2c(ccc3nc(C)c(C)c32)[nH]c1C	.	-34	.	.	4

Additional structures
SMILES	YopH inh	RecA splice inh	Mtb H37Rv	Arbovirus inh	Mtb bLac sens	others
CCOc1ccc(N=C2NC(=O)S/C2=C\c2ccc(O)cc2)cc1	-16	11	-1%	-3	7
O=C1CC(N2CCN(C3CCc4ccccc4C3)CC2)C(=O)N1c1ccccc1 (stereo not given)	-88	3.0	-11%	.	-6
CCCCCC1CCC(C(=O)NNC(=S)NCC)CC1 (stereo not given)	-18	-1.7	-19%	-9	2
CC1CN(C)C(C)CC1OC(=O)C(c1ccccc1)c1ccccc1 (stereo not given)	.	1.9	.	.	0
CCN1CCN(C(=S)c2ccc(Br)cc2)CC1	-28	-0.2	-5%	6	-1
CC(=O)Nc1cccc(-n2nnc(SCC(=O)Nc3ccccc3)n2)c1	.	1.0	-12%	.	-11
O=C1C(Oc2ccc(Cl)cc2)C(c2ccc3c(c2)OCO3)N1CC1CCCO1 (stereo not given)	.	6.2	-6%	-2	-4
O=P1(NCCCn2cc[n+](Cc3nc4ccccc4[nH]3)c2)C=C(c2ccccc2)OC(c2ccccc2)=C1	.	-13	25%	.	48
Nc1nc(-c2ccco2)nc(N2CCCCC2)n1	-16	7.4	9%	-3	-5
COc1cccc(OC)c1C(=O)N1CCNCC1	.	-0.8	.	.	4
Cc1cc(C(C)(C)C)cc(C)c1COC(=O)C1CCC(=O)N1 (stereo not given)	-37	-2.1	5%	2	3
Cc1cc([N+](=O)[O-])c(C)cc1-c1ccc(/C=N/n2cnnc2)o1	.	-0.2	.	.	1
CCc1nc2ccccc2c(C(=O)Nc2ccc(C)cc2)c1C	.	-0.7	.	.	5
CC1=CCC(C(=O)O)C(C(=O)Nc2nc3ccc(S(C)(=O)=O)cc3s2)C1 (stereo not given)	-7	-3.5	1%	2	-8
O=C(O)C1CCN(C(=O)c2ccccc2N2C(=O)[C@@H]3Cc4c([nH]c5ccccc45)C(c4cccc(Cl)c4)N3C2=O)CC1 (stereo not given in full)	.	-2.8	.	.	-15
CN(C(=O)COc1ccc(Cl)cc1Cl)c1nnc(C23CC4CC(CC(C4)C2)C3)s1	-28	5.7	9%	-3	-1
COC(=O)c1ccc(CN2CCCC(C(=O)Nc3cccc(-n4cnnn4)c3)C2)cc1 (stereo not given)	.	3.8	.	.	0
CCOP(=O)(OCC)c1nc(-c2ccc(OC)cc2)oc1N1CCOCC1	.	-1.7	0%	.	3
Cc1ccc(C)c(S(=O)(=O)NCCOC(=O)Nc2sc(=S)n(C)c2C)c1	-29	-2.2	7%	-15	3
C=CCOc1ccccc1CNCc1cccnc1	-7	2.2	-1%	7	0
Cc1cccc(C(=O)N2CCN(Cc3ccc4c(c3)OCO4)CC2)c1	-52	-2.0	4%	-1	-4	Arbovirus inh repeat=-1
CCC(=O)Nc1ccc2c(c1)C(=O)N(C)C2=O	-28	-4.7	-2%	4	-4
CN(c1ccccc1)S(=O)(=O)c1cccc(C(=O)N2CCN(c3ccccn3)CC2)c1	-40	2.9	2%	5	-17	Arbovirus inh repeat=9
Cn1ccnc1SCC(=O)Nc1nc2c(F)c(F)c(F)cc2s1	.	-0.9	44%	1	-1
NS(=O)(=O)c1ccc(NC(=S)NC(=O)C2CCCCC2)cc1	.	0.2	2%	1	11
C=CC(=O)N=c1sc2ccccc2n1-c1ccccc1	.	.	7%	-33	88

Bioassay records from PubChem.
